Source: PubChem (National Center for Advancing Translational Sciences (NCATS))
miR-21 FLuc = miR-21 reporter, rising signal. HeLa miR-21 FLuc reporter, luciferase, 48 h. Potency, µM (titrated, usually from 38.3 µM), for the others: top-dose reporter change, positive = more light. 340,000 tested, under 10 active; active = well fitted rising curve with a large enough effect; inconclusive = small, poorly fitted or top-dose-only effect; inactive = no such curve, though single readings can be large or run the other way;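 further: % of control where 0% means no effect; miR-21 action dims this reporter so a rising signal means less miR-21 action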
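HeLa cells endogenously expressing miR-21, stably carrying CMV-driven firefly luciferase with a downstream miR-21 binding site, 2000 cells/well. Titrations up to approximately 40 uM, 48 hours; luciferase luminescence read.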
GLA inh pH 4.5 = alpha-galactosidase A (human) inhibition, pH 4.5; P06280; purified enzyme, 4-MU-alpha-Gal fluorescence, pH 4.5; AID 1467; activity change, negative = inhibition, % at 105 µM; 230,000 tested, under 10 active; inconclusive = small, poorly fitted or top-dose-only inhibition, or a rising curve; inactive = flat fitted curve, though single readings scatter; no compound was filed as active;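 further: 0% = full activity with enzyme and -100% = basal without enzyme; dose as in the result columns while the protocol names 77 µM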
Target sequence (P06280 whole entry, looked up): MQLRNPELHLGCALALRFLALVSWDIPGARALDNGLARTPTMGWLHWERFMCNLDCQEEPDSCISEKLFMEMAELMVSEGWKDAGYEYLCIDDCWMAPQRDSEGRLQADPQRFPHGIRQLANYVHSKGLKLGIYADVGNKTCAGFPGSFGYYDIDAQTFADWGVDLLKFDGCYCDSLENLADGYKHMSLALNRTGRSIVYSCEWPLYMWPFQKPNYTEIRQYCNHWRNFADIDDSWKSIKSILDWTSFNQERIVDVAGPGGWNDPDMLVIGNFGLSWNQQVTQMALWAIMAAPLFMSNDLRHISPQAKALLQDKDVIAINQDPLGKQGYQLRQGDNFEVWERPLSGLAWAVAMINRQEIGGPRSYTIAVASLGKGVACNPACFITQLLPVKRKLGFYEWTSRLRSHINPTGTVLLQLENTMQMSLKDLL
Rango release inh = inhibitors of RanGTP-induced Rango-importin beta complex dissociation; O95149+P62826; Biochemical FRET Rango-importin beta, RanGTP-induced dissociation; Potency, µM (doses to about 46.1 µM), inactives show top-dose activity change, negative = inhibition; 340,000 tested, 0.071% active; AID 540253; active means falling FRET ratio curve, often poorly fitted, with flat reads before Ran was added; inconclusive means other falling curves, or compound fluorescence or quenching; inactive means flat or rising ratio curve;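 further: potency means the concentration at half of the fitted maximal effect; % of control where 0% means no effect; nearly all actives have a fitted effect of over 45% in size; -100% = wells without RanGTP and RCC1; the record marks most hits as doubtful in a second field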
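Rango (0.1 uM)–importin beta (0.25 uM) complex; RanGTP-RCC1 trigger; 45 min RT; CFP/YFP FRET read.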
Rango complex inh = Rango-importin beta binding inhibition; Q14974; Rango CFP/YFP FRET sensor + importin beta, 45 min; Potency, µM (top dose mostly 92.2 µM), for the others: top-dose inhibition of complex formation; 340,000 tested, 0.031% active; AID 540263; active = rising FRET ratio curve, often small or poorly fitted; inconclusive = mostly compound fluorescence or quenching in the first reads; inactive = flat curves in all reads;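 further: potency means the concentration at half of the fitted maximal effect; 0% = DMSO wells and 100% = buffer wells lacking importin beta; nearly all actives have a fitted effect of over 15% in size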
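Inhibition scored from the CFP 486 nm/YFP 530 nm FRET ratio 45 min after adding 0.125 microM importin beta to 50 nM Rango biosensor preincubated 5 min with compound (room temperature, PBS with DTT, Tween-20, BSA). No-importin wells as positive control.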
* marks the source's active call; other numbers are inactive results; ? = inconclusive; . = no result given; & = joins results of further samples. An excerpt; the hit share may differ from the screen's.

miR-21 FLuc	GLA inh pH 4.5	Rango release inh	Rango complex inh	SMILES
6%	.	4%	-0.5%	CCCC(C(=O)NCCC(C)C)N(Cc1ccc(F)cc1)C(=O)c1snc(C(N)=O)c1N (configuration not stated)
.	.	-8%	-0.1%	O=C1c2ccccc2S(=O)(=O)N1CCCN1C(=O)c2ccccc2S1(=O)=O
-16%	.	12%	2.6%	COc1cc2c(cc1OC)/C(=C/C(=O)c1ccc(OC)c([N+](=O)[O-])c1)NCC2
.	.	2%	3.2%	Cc1ccc(C)c(N2N=C(C(=O)Nc3cccnc3)CCC2=O)c1
16%	1	11%	-1.4%	COc1ccc(CNC(=O)Cc2nn(C)c(=O)c3ccccc23)cc1
-15%	-4	4%	0.2%	CC1CCN(c2ncnc3nc[nH]c23)CC1
-6%	.	1%	-0.2%	CCn1cc(C(=O)N[C@@H](CCSC)C(=O)NCCCN2CCOCC2)c(=O)c2cc3c(cc21)OCO3
14%	.	?	1.4%	Oc1ccccc1-c1nc(NC2CCCC2)c2ccccc2n1
.	.	0%	2.3%	COc1ccccc1NS(=O)(=O)c1cc(NC(=O)C(C)(C)C)ccc1N1CCOCC1
-9%	3	7%	-0.2%	Cc1nc(C(C)NC(=O)CCc2nnc(-c3ccsc3)o2)cs1 (configuration not stated)
-1%	5	1%	0.0%	O=C(NC1CCCC1)c1cccc(Cn2cc([N+](=O)[O-])cn2)c1
-30%	2	-2%	0.6%	Cc1cc(NC(=O)c2cccc(F)c2)no1
-1%	-11	-14%	?	COc1ccccc1C1NC=C([N+](=O)[O-])C=C1[N+](=O)[O-] (configuration not stated)
.	.	0%	-0.5%	O=c1c2ccccc2oc2ccc(-c3ccc4cc[nH]c4c3)cc12
-44%	-1	?	?	COc1ccc(/C(O)=C2/C(=O)C(=O)N(CCN3CCOCC3)C2c2ccccn2)cc1 (configuration not stated)
-21%	3	0%	1.3%	COc1ccc2nc(NC(=O)CN3CCOCC3)sc2c1
-3%	-2	23%	3.1%	CC1(C)CC(=O)c2c(Cc3ccccc3)n[nH]c2C1
-1%	-9	-5%	0.4%	C/C=C(/C)C(=O)O[C@H]1[C@@H](O)c2c(ccc3ccc(=O)oc23)OC1(C)C
1%	.	-21%	?	C[C@H]1C(=O)N(C)CCN1C(=O)c1cccc(OC2CCN(CC(C)(C)C)CC2)c1
-9%	.	2%	-0.7%	O=C(c1cc2ccccc2s1)N1CCN(c2ccccn2)CC1
-18%	5	27%	-3.9%	CN(C)CCNC(=S)Nc1ccc(Cl)cc1Cl
.	.	-3%	-0.2%	CCCCN(C(=O)c1ccc(S(=O)(=O)N2CCC(C)CC2)cc1)C1CCS(=O)(=O)C1 (configuration not stated)
-8%	-3	17%	1.6%	NS(=O)(=O)c1cccc(NC(=O)CN2CCN(Cc3ccc4c(c3)OCO4)CC2)c1
-23%	.	?	?	CCOc1ccc(-n2nc3cc(C)c(N)cc3n2)cc1
-8%	-4	-3%	-0.9%	COc1cc(/C=C/C(=O)O)cc(S(=O)(=O)N2CCCc3ccccc32)c1OC
.	.	-20%	0.1%	COc1ccc(NC(=O)CC(C)c2ccccc2)cc1S(=O)(=O)N1CCOCC1 (configuration not stated)
-22%	3	-7%	5.6%	COc1ccccc1C(=O)Nc1ccccc1SC
-1%	.	-16%	-1.4%	CCOc1ccc(/C=C2\SC(=S)N(CCC(=O)Nc3ccccc3C(=O)O)C2=O)cc1
-65%	.	-4%	5.8%	COc1cccc2cc(CC(=O)c3ccc(C)cc3C)c(=O)oc12
0%	5	-5%	6.2%	CC(C)NC(=O)C1CC(=O)N(C(C)c2ccccc2)C1 (configuration not stated)
?	-7	10%	3.7%	NC(=O)[C@@H]1CC2(CC(c3cccc(NC(=O)CC(c4ccccc4)c4ccccc4)c3)=NO2)CN1C(=O)COc1ccc(Cl)cc1 (some centres not stated)
.	.	-11%	-2.9%	COC(=O)c1c(NC(=O)CN(C)CC(=O)Nc2ccc(C)cc2)sc2c1CCC(C)C2 (configuration not stated)
9%	-21	-9%	-2.0%	COC(=O)C1C(=O)C2=C(CC1C)NC(C)=C(C(=O)OC1CCCCC1)C2c1ccc(N(C)C)cc1 (configuration not stated)
6%	.	41%	-3.4%	CCOC(=O)C1=C(C)N=c2s/c(=C/c3cccc([N+](=O)[O-])c3O)c(=O)n2C1c1ccccc1 (configuration not stated)
19%	0	4%	0.0%	O=C(CCNC(=O)c1ccccc1Cl)Nc1nc(-c2ccc3ccccc3c2)cs1
-7%	6	1%	2.6%	COC(=O)c1sc2ccccc2c1NC(=O)c1ccc(S(=O)(=O)N2CCC(C)CC2)cc1
-2%	.	1%	0.3%	CCOc1ccc(CCNC(=O)c2ccc(F)c(S(=O)(=O)N3CCOCC3)c2)cc1OCC
-20%	5	?	?	CCOC(=O)N1CCC(Nc2nc3ccccc3n3nnnc23)CC1
14%	-2	.	.	CCCCCCN(C(=O)CCCCCN1C(=O)NC(c2ccccc2)C(C(=O)OCc2ccccc2)=C1C)C(C(=O)NCCCC)c1ccc(OCC(=O)OC)c(C(=O)OC)c1 (configuration not stated)
0%	4	-4%	-0.7%	CC(Oc1ccccc1)c1ccnn1S(=O)(=O)c1ccccc1 (configuration not stated)
-1%	.	?	?	Cc1nn(C(C)C(=O)NCCCN(Cc2ccccc2)C(C)C)c(=O)c2c1sc1ccccc12 (configuration not stated)
-44%	-2	3%	-2.2%	COc1cccc(NC(=O)Nc2ccccc2Br)c1
.	.	-14%	2.0%	NC(=O)C1(N2CCCCC2)CCN(C(=O)CSc2nc3ccccc3o2)CC1
-8%	.	13%	-0.6%	Cc1cc(C(=O)NNC(=O)c2cccs2)nn1C(C)(C)C
5%	.	22%	-3.1%	Cc1nnc(Cn2cnc3c2c(=O)n(C)c(=O)n3C)o1
.	.	-8%	-2.9%	CCN(CC)C(=O)[C@H]1CC(CC(=O)NCCc2ccccn2)C(=O)N2CCc3c([nH]c4ccccc34)[C@]12C (some centres not stated)
-1%	3	0%	-3.7%	COC(=O)[C@H](CC(C)C)NC(=O)N1CCCCC1C (some centres not stated)
-10%	6	-5%	-0.5%	C=CCOc1c(CNn2cn[nH]c2=S)cccc1OC
0%&1%	-9&-5	1%&-5%	-0.2%&-1.1%	Cc1ccccc1OCC(O)Cn1c(=N)n(CCN2CCOCC2)c2ccccc21 (configuration not stated)
-46%	2	-7%	-0.7%	Fc1cc(Br)ccc1NC(=S)Nc1ccccc1

Remaining list, next part.
miR-21 FLuc	GLA inh pH 4.5	Rango release inh	Rango complex inh	SMILES
-5%	-1	-3%	-1.1%	NC(=O)COC(=O)c1cccc(S(=O)(=O)N2CCCc3ccccc32)c1
-1%	0	-11%	-2.6%	Cc1ccc2[nH]cc(CCNC(=O)/C=C/c3ccco3)c2c1
-1%	.	-4%	3.0%	CCn1c(=O)n(CC(=O)NCC2CCCO2)c(=O)c2c3c(sc21)CCCC3 (configuration not stated)
-36%	.	2%	0.8%	Cc1c(C(=O)OCC(=O)N(C)c2ccccc2)oc2ccccc12
-1%	.	-14%	-0.9%	O=C(Cn1ccc([N+](=O)[O-])n1)NCC1CCCO1 (configuration not stated)
.	.	0%	-3.1%	Cc1cc(C(=O)CCC(=O)NCC2COc3ccccc3O2)c(C)s1 (configuration not stated)
.	.	2%	0.5%	CCOc1ccc(OCCCC(=O)N(C)CC(=O)Nc2ccc(N3CCOCC3)cc2)cc1
.	.	-4%	-2.9%	N#Cc1ccc(OCC(=O)OCC(=O)Nc2sccc2C(N)=O)cc1
19%	-15	?	?	COc1cccc(-n2c(SCc3cc(=O)oc4cc(O)c(O)cc34)nc3ccccc3c2=O)c1
1%	.	8%	8.4%	Cc1nnc(NC(=O)CSc2nnc(C)c(=O)n2N)s1
9%	-4	-3%	0.7%	CC(C)CCN1CCN(CC(c2ccccc2)c2ccccc2)CC1CCO (configuration not stated)
-6%	-8	9%	2.0%	CC(C)Nc1nc(NC(C)C)nc(C(=O)OCCO)n1
.	.	2%	-1.2%	Nc1c(C(=O)Nc2ccc3c(c2)OCCO3)nnn1Cc1ccc(Br)cc1
-4%	-6	0%	-4.0%	CC1CCC/C(=N\NC(=O)COc2ccccc2Cl)C1 (configuration not stated)
-3%	0	19%	-4.3%	CC(=O)N(NC(=O)c1ccc(C)cc1)C1CC(=O)N(c2ccccc2Cl)C1=O (configuration not stated)
-1%	9	12%	-1.1%	CCOC(=O)N1CCN(C(=O)CN(c2ccc(OCC)cc2)S(C)(=O)=O)CC1
-16%	3	15%	-1.2%	Cc1ccc(NC(=O)Nc2ccc([N+](=O)[O-])cc2)nc1
-1%	.	0%	-2.5%	CC(=O)Nc1ccc(NC(=O)C2CCCN2C(=O)Nc2ccc(F)cc2)cc1 (configuration not stated)
-3%	1	-10%	0.0%	On1nnc2ccccc21
-4%	.	7%	4.5%	CC1Cc2ccccc2N1C(=O)CSc1nnc(N)s1 (configuration not stated)
.	.	0%	-0.8%	CCOC(=O)C1CCCN(C(=O)CN2C(=O)c3ccccc3S2(=O)=O)C1 (configuration not stated)
-34%	3	1%	3.7%	O=C(COc1ccccc1Cl)Nc1ccc(Cl)cn1
-71%	.	1%	-2.1%	COc1ccc(NC(=O)n2ncc3cc(Cl)ccc32)cc1OC
1%	-25	1%	-0.8%	O=C(NC1CCCCC1)C1CCN(C(=O)c2ccc(-c3ccccc3)cc2)CC1
6%	3	-5%	-3.4%	COc1ccc(CNS(=O)(=O)NCc2ccc(C)cc2)cc1OC
13%	-9	13%	?	Cc1ccccc1NC(=O)c1ccc(CN2CCc3ccccc3C2)cc1
-11%	-7	1%	-0.2%	Cc1cc(OCCCCNC(C)C)cc(C(C)C)c1
26%	.	1%	-2.6%	CC(=O)NC(c1ccc2ccccc2c1)c1ccc2cccnc2c1O (configuration not stated)
17%	-2	-28%	?	COC(=O)/C(C#N)=C\c1c(OC)[nH]c2ccccc12
1%	6	0%	1.5%	O=C(NCc1ccncc1)C(=O)NCc1ccncc1

Compound profiles (already shown):
COc1ccc2nc(NC(=O)CN3CCOCC3)sc2c1 in the list: miR-21 FLuc = -21%; GLA inh pH 4.5 = 3; Rango release inh = 0%; Rango complex inh = 1.3%
CC(=O)N(NC(=O)c1ccc(C)cc1)C1CC(=O)N(c2ccccc2Cl)C1=O (configuration not stated) in the list: miR-21 FLuc = -3%; GLA inh pH 4.5 = 0; Rango release inh = 19%; Rango complex inh = -4.3%

Going on with the list.
miR-21 FLuc	GLA inh pH 4.5	Rango release inh	Rango complex inh	SMILES
.	.	-10%	-4.4%	CCOc1ccc(S(=O)(=O)NCCC(=O)NCC(c2ccco2)N2CCCCC2)cc1 (configuration not stated)
0%	.	-16%	2.3%	COc1ccccc1NC(=O)CN(c1ccccc1)S(=O)(=O)c1ccccc1
.	.	7%	-0.4%	Cc1ccc(S(=O)(=O)N(C)C)cc1NC(=O)C(C)OC(=O)c1cc[n+]([O-])cc1 (configuration not stated)
-26%	1	28%	1.4%	Fc1ccc(-c2cnc[nH]2)cc1
-2%	-1	-3%	-0.4%	COc1ccc(CCNc2c([N+](=O)[O-])c(=O)oc3ccccc23)cc1OC
2%	-3	21%	3.8%	CC1(NC(=S)Nc2ccc(NC(=S)NC3(C)CCS(=O)(=O)C3)cc2)CCS(=O)(=O)C1 (configuration not stated)
-32%	-4	3%	1.4%	Cc1cc(C(=O)CSc2n[nH]c(N)n2)c(C)n1-c1cccc(F)c1
-22%	8	-12%	2.9%	COc1ccc(-c2ncccc2O)cc1
1%	.	-3%	0.7%	Cc1cc(OCC(=O)N2CCC(C(=O)O)CC2)c2c(C)cc(=O)oc2c1

An excerpt from above with just miR-21 FLuc, Rango release inh and GLA inh pH 4.5.
smiles	miR-21 FLuc	Rango release inh	GLA inh pH 4.5
Cc1ccccc1NC(=O)c1ccc(CN2CCc3ccccc3C2)cc1	13%	13%	-9
Cc1cc(OCCCCNC(C)C)cc(C(C)C)c1	-11%	1%	-7
CC(=O)NC(c1ccc2ccccc2c1)c1ccc2cccnc2c1O (configuration not stated)	26%	1%	.
COC(=O)/C(C#N)=C\c1c(OC)[nH]c2ccccc12	17%	-28%	-2
